# VACV mCherry inh – qHTS for Stage-Specific Inhibitors of Vaccinia Orthopoxvirus: mCherry Reporter Primary qHTS; Potency, µM (series often up to 36.5 µM), without a hit: at the top dose activity change, negative = inhibition, actives largely listed as inhibitors; hit rate 0.63% among 310,000; Vaccinia virus mCherry reporter infection, fluorescence; about a quarter of the inactives have no number; AID 720579, 2013; active = well fitted inhibition curve with a large enough effect; inconclusive = small, poorly fitted or top-dose-only effect; inactive = no such curve, though single readings can be large or run the other way; tested in A549 cells; further: nearly all actives have a fitted effect of over 35% in size; inactives centre near -10
# VACV Venus inh – qHTS for Stage-Specific Inhibitors of Vaccinia Orthopoxvirus: Venus Reporter Primary qHTS; Vaccinia virus Venus reporter expression, fluorescence; Potency, µM (doses to about 36.5 µM), for inactives: at the highest dose activity change, negative = inhibition, actives largely listed as inhibitors; hit rate 0.46% among 330,000; AID 720580, 2013; active means well fitted inhibition curve with a large enough effect; inconclusive means small, poorly fitted or top-dose-only effect; inactive means no such curve, though single readings can be large or run the other way; tested in A549 cells; further: nearly all actives have a fitted effect of over 30% in size; inactives centre near -10
# Active calls of the source: *; i = inactive; ? = inconclusive; . = not tested or not shown; & = joins results of further samples; [ ] = another dose, or the depositor's remark. On the % scale 0 is the no-effect control and ±100 the full control effect; potency means the concentration at half of the fitted maximal effect.
structure,VACV mCherry inh,VACV Venus inh
Cc1csc(NC(=O)Cc2ccccc2[N+](=O)[O-])n1,-6.5%,-3.7%
NC(=O)c1ccc(-n2nnnc2SCC(=O)NC2CCCCC2)cc1,-12.0%,-5.2%
Cn1cc(Br)c(-c2cccc(N3C(=O)CCCC3=O)c2)n1,i,-19.7%
COc1ccccc1C(=O)NC(CCSC)C(=O)NCC(c1cccs1)N(C)C (stereo not given),i,-12.9%
CCCCn1c(N)c(N(CC(C)C)C(=O)c2ccc3c(c2)NC(=O)C(C)S3)c(=O)[nH]c1=O (stereo not given),-3.8%,-4.1%
Cc1cc(C)cc(OCc2nc(-c3cccnc3)no2)c1,-9.5%,-4.6%
O=C1NC(=O)C(=Cc2ccc(Oc3ccc([N+](=O)[O-])cc3)cc2)C(=O)N1,-6.3%,-2.1%
Cc1cc(/C=N/N2CCN(C)CC2)c(C)n1-c1ccc(Cl)cc1,-4.6%,-4.3%
CCCCSc1nc2c(c(=O)n1CC)SC(C)C2 (stereo not given),11.4%,-6.4%
COc1ccccc1[C@@H]1C(c2cccc(Cl)c2)=NN(c2ccc(Br)cc2)[C@H]1C(=O)N1CCOC1=O,i,-13.2%
CCCC[C@@H](C=O)NC(=O)[C@H](CC(C)C)NC(=O)OCc1ccccc1,-19.7%[60.7 µM],-14.5%[60.7 µM]
Clc1ccc2c(c1)C(C1=NCCN1)c1ccccc1CS2 (stereo not given),-17.8%,-29.1%
COc1ccc(COC(=O)Nc2cc3c(C(F)(F)F)nn(C)c3s2)cc1,i,-15.0%
Cc1cc(F)ccc1S(=O)(=O)Nc1ncnc2scc(-c3ccc(F)cc3)c12,-9.0%,-11.1%
O=C(NCN1C(=O)C2C3C=CC(C3)C2C1=O)Nc1ccccn1 (stereo not given),i,-11.4%
O=C(CSc1cn(CC(=O)N2CCCCCC2)c2ccccc12)Nc1ccccc1F,-14.9%,-13.4%
O=C(c1ccc(NC2=NC3CS(=O)(=O)CC3S2)cc1)N1CCN(c2ccccc2F)CC1 (stereo not given),i,0.3%
O=C(CSc1ncc2c(n1)-c1ccc(Cl)cc1N(Cc1ccccc1)S2(=O)=O)Nc1ccccc1C(F)(F)F,-23.7%,-2.5%
COP(=O)(OC)OC(C(=O)c1ccccc1)c1ccc(Cl)cc1 (stereo not given),i,-6.6%
Cc1cccc(NC(=S)Nc2ccc(N3CCOCC3)cc2)c1C,-20.1%,-13.4%
CCOC(=O)c1c(NC(=O)C2CCN(S(=O)(=O)c3cccs3)CC2)sc(C)c1C,.,-16.3%
CCCOc1ccc(C(=O)CCN2CCN(C(=O)OCC)CC2)cc1,?,?
COc1ccc(NC(=O)Cn2nnc(-c3ccccc3NC(=O)c3ccco3)n2)cc1,.,?
COc1cccc(CNc2cc(C)ccn2)c1O,i,-2.5%
COc1ccc(NC(=O)C2(S(=O)(=O)c3ccc(C)cc3)CC2)cc1,-16.6%,-3.3%
COc1ccc(C(=O)N/N=C/c2ccc(OC)c(COc3ccc(F)cc3)c2)cc1,-19.7%,-26.6%
COCCCNC(=O)c1ccc(Cn2c(=O)c3cccn3c3cccnc32)cc1,-27.1%,-19.0%
O=c1ccn([C@@H]2O[C@H](CNCc3cccc4c3sc3ccccc34)[C@@H](O)[C@H]2O)c(=O)[nH]1,4.6%,-0.2%
Cc1cc(C)c2sc(NC(=O)CN3C(=O)CCC3=O)nc2c1,i,0.0%
N=C(N)c1ccc(/C=C/c2ccc(C(=N)N)cc2O)cc1,6.0%,-9.8%&-4.0%
O=S1(=O)CC(N2CCC(Cc3ccccc3)CC2)CN1Cc1ccccc1 (stereo not given),i,-14.4%
CC(=O)Nc1ccc(N(C(=O)CNC(=O)c2ccco2)C(C(=O)NCc2ccco2)c2ccccc2F)cc1 (stereo not given),-8.7%,15.6%
COc1c(Br)cc([N+](=O)[O-])c(OC)c1C(=O)NC(=O)Nc1c(Cl)cccc1Cl,-18.7%,3.7%
O=c1c2ccccc2c(C=Nc2cccc(S(=O)(=O)NC3=NCCCCC3)c2)c(O)n1Cc1ccccc1,-3.5%,-20.4%
C=CCC[C@H](Cc1ccc(F)cc1)C(=O)OC[C@@H]1CCCN1C(=O)[C@@H](CC=C)CC(=O)NCCO,1.6%,-0.9%
COc1ccccc1Nc1nc2ccc(Cl)cc2nc1-n1nc(C)cc1C,-10.9%,-4.9%
CC1CC(C)CN(S(=O)(=O)c2ccc(C(=O)N3CCOCC3)cc2)C1 (stereo not given),i,-10.6%
Cc1ccc(Nc2ncccc2C(=O)O)cc1C,i,-14.0%
CCOC(=O)C1CCCN(c2c(NCCN(CC)c3ccccc3)c(=O)c2=O)C1 (stereo not given),i,4.3%
CCN(CC)CCNc1nc2cc(OC)c(OC)cc2c2nc(-c3ccccc3)nn12,-15.6%,-29.5%
CN(Cc1ccccc1)S(=O)(=O)c1ccc(NC(=O)C2CCCCC2C(=O)O)cc1 (stereo not given),-15.0%,-9.0%
COC(=O)C1=CN(c2ccc(F)cc2)C(N)=C(C#N)C1c1ccccc1 (stereo not given),?,-18.1%
CCOc1nc(N2CCOCC2)nc(N2CCOCC2)n1,-4.1%,-6.4%
CC(C)(C)NC(=O)CN(C(=O)c1csnn1)c1cccc2c1CCCC2,i,-21.4%
O=C(CSc1nc2cc3ccccc3cc2[nH]1)Nc1ccc(F)cc1,-23.1%,-8.5%
C=CCc1ccc(OCCCCCN2CCOCC2)c(OC)c1,.,-6.5%
COCCNC(=O)CN1N=C(c2ccc(C)cc2)CCC1=O,-13.8%,-10.3%
CC(C)(C)c1ccc(C(=O)NCCCn2ccnc2)cc1,-8.4%,-12.2%
O=C(NCc1ccc(F)cc1)c1cccc(NC2=NC3CS(=O)(=O)CC3S2)c1 (stereo not given),i,-12.1%
CC(C)(C)NC(=O)CSc1ncnc2c1nnn2Cc1ccccc1Cl,-8.6%,-4.8%

# Following part
structure,VACV mCherry inh,VACV Venus inh
Cc1ccccc1NC(=O)Cc1ccccc1,-10.7%,-9.9%
CCn1c(SCC(=O)c2ccc([N+](=O)[O-])cc2)nnc1-c1ccc(Cl)cc1,-14.4%,4.6%
Cc1cc(NC(=O)/C=C/c2ccccc2Cl)no1,-11.1%,-3.5%
O=[N+]([O-])c1cc([N+](=O)[O-])c(Oc2cccc3c2CCCC3)cc1NN1CCCCC1,-23.9%,-25.3%
CC1CCCC(C)N1C(=O)CSc1nnc(COc2cccc3cccnc23)o1 (stereo not given),i,-11.6%
CCCCOc1ccc(S(=O)(=O)NC(=O)C2(C)CCN2C(=O)c2c(C)noc2C)cc1 (stereo not given),9.1%,5.1%
COc1ccc(CN2CC[C@H]3C=CC[C@@H](C(=O)Nc4ccccc4)[C@H]3C2=O)cc1OC,-25.1%,-14.2%&-17.5%
O=C(CN(c1ccccc1)S(=O)(=O)c1ccc(F)cc1)NC1CCCCCC1,-17.4%,-6.8%
CC1(C(=O)NCc2ccccc2Br)CCN1Cc1ccc(-c2ccccc2)o1 (stereo not given),i,-4.2%
CC(=O)Nc1cccc(NC(=O)CCN2C(=O)c3ccccc3S2(=O)=O)c1,-3.0%,-9.0%
O=C1NC[C@@H](CCCCN2C[C@H](Cc3ccccc3)N(CC3CCCCC3)C(=O)C2=O)N(Cc2ccccc2)C1=O,14.8%,-2.1%
CCC1CN(CC(=O)NCc2cccc(Br)c2)c2ccccc2S1 (stereo not given),-6.9%,1.0%
COCCN(C(=O)c1csnn1)C(C(=O)NC1CCCCC1)c1ccccc1F (stereo not given),-18.5%,0.0%
Cc1n[nH]c(C)c1CCCCOc1ccccc1,-14.2%,-3.5%
O=C(O)c1cccnc1SCC(=O)C12CC3CC(CC(C3)C1)C2,i,-7.1%
C[C@@H]1CN([C@H](C)CO)C(=O)c2cccc(NC(=O)NC3CCCCC3)c2O[C@@H]1CN(C)C(=O)Nc1ccc(C(F)(F)F)cc1,-6.6%,?
CS(=O)(=O)Nc1cccc(-c2nc(N3CCNCC3)c3ccccc3n2)c1,-13.4%,-12.1%
COc1cccc(NC(CNS(=O)(=O)c2ccc(Cl)cc2)c2ccccc2)c1 (stereo not given),?,?
CCCCN(C(=O)COc1ccc(NC(C)=O)cc1)C1CCS(=O)(=O)C1 (stereo not given),-1.3%,-18.4%
CCCCN(C=O)c1c(CC)nc2c(OCc3ccc(Cl)cc3Cl)cccn12,-26.6%,-23.0%
O=C(CCCCCn1c(=S)[nH]c2ccc(N3CCOCC3)cc2c1=O)NCc1ccccc1Cl,-1.8%,-6.2%
O=c1c(Cc2ccccc2)c(O)c2cccc3c4c(n1c23)CCCC4,i,-16.1%
Cc1ccsc1CN(C(=O)COc1ccc(Cl)cc1)C1CCS(=O)(=O)C1 (stereo not given),-10.6%,-8.1%
COc1ccc(-c2cc3ccccc3n2CC(O)CN2CCC(C)CC2)cc1 (stereo not given),-18.4%,-15.7%
Cc1ccc(S(=O)(=O)NC2CCCCCCC2)cc1,i,-11.8%
COc1ccc(C2(C)NC(=O)N(CC(=O)Nc3ccc(Br)cc3F)C2=O)cc1OC (stereo not given),-11.0%,-11.5%
COc1ccc(C2CC(c3cccs3)=NN2C(=O)c2ccc(Br)o2)cc1 (stereo not given),?,-23.4%
O=C(Nc1cc2c3c(c1)CC(=O)N3CCC2)c1ccccc1F,-18.0%,-12.1%
Cc1ccccc1N1CCN(C(=O)C2CCCCC2)CC1,.,-11.1%
COc1ccc(CNC(=O)C2CCCN2c2nc(C)c3ccccc3n2)cc1 (stereo not given),-10.4%,-1.0%
O=C(NCc1cccnc1)C1CCN(C(=O)c2ccc(Cl)cc2Cl)CC1,-18.8%,-7.1%
CC(C)N(C(=O)c1ccccc1-c1ccccc1)C(C)C,-4.5%,-29.7%
CCC(=O)N1CCc2cc(S(=O)(=O)NC(C(=O)NCCc3ccc(OC)c(OC)c3)C(C)C)ccc21 (stereo not given),-14.9%,-9.6%
CCC(Oc1ccccc1OC)C(=O)Nc1ccc2c(c1)OCCO2 (stereo not given),-0.8%,-9.0%
CC(=O)c1cnc2cc(-c3ccc(Cl)cc3)nn2c1C,.,-9.7%
Cc1nn(CC(=O)NC2CC2)c(C)c1S(=O)(=O)N(C)C,-23.4%,-1.7%
Cc1cc(C)n2nc(SC(C)C(=O)NC3CCCCC3C)nc2n1 (stereo not given),-14.9%,-9.7%
Cc1cccc(C)c1NC(=O)CNC(=O)Cc1ccccc1[N+](=O)[O-],i,-2.5%
CSCC[C@H](N)C(=O)NC[C@H]1O[C@@H](n2cnc3c(N)ncnc32)[C@H](O)[C@@H]1O,i,-5.9%
CCOC(=O)C1CCN(C(=O)c2sccc2Cl)CC1,-12.6%,-3.7%
N#Cc1ccccc1Cn1c(=O)n(-c2ccc(CC(=O)NCc3ccco3)cc2)c(=O)c2sccc21,3.9%,-2.5%
CCN1CCN(C(=O)COc2ccc(S(=O)(=O)Nc3ccc(Cl)cc3)cc2)CC1,-1.7%,-22.6%
CCCOC1CCCN(C(=O)CCCn2nnnc2CN2CCOCC2)C1 (stereo not given),-24.3%,-14.4%
Cc1nn(C(C)C(=O)NCc2ccccc2)c(C)c1[N+](=O)[O-] (stereo not given),-13.9%,-14.5%
O=C(CSc1ccccc1)Nc1ccc(N2CCN(c3ccccc3)CC2)c(F)c1,.,-18.4%
Cc1ccc(C)n1NC(=O)c1ccc(O)cc1,i,-3.2%
CN(C)c1ccc(C(=O)OCC(=O)c2cccs2)cc1,i,-16.3%
CC1CCc2c(sc3nnn(Cc4ccc(F)cc4)c(=O)c23)C1 (stereo not given),-1.0%,-4.2%
NC(C(=O)O)c1cccc(O)c1 (stereo not given),-15.3%,-5.2%
CC(C)(C)OC(=O)N1CCC(NC(=O)c2nc[nH]c2C(=O)N2CCN(c3ccccc3)CC2)CC1,-6.9%,-16.1%

# Full records as entered above. Order of values: VACV mCherry inh | VACV Venus inh
# CCC(=O)N1CCc2cc(S(=O)(=O)NC(C(=O)NCCc3ccc(OC)c(OC)c3)C(C)C)ccc21 (stereo not given) is listed with -14.9% | -9.6%
# CCCCN(C(=O)COc1ccc(NC(C)=O)cc1)C1CCS(=O)(=O)C1 (stereo not given) is listed with -1.3% | -18.4%

# Carrying on.
structure,VACV mCherry inh,VACV Venus inh
O=C(Nn1c(C2CCCCC2)nc2ccccc2c1=O)c1ccc(Cl)c([N+](=O)[O-])c1,i,-7.0%
COc1ccc2nc(N/C(N)=N/C(=S)Nc3ccccc3)nc(C)c2c1,-29.9%,-18.1%
CCCCn1c(SCc2ccccc2C#N)nc2c(sc3ccccc32)c1=O,-13.6%,-3.2%
O=C(CC(C(=O)O)n1ccnc1)c1ccc(Cl)cc1 (stereo not given),-17.2%,-8.1%
O=c1c2ccccc2nc2n1CC/C2=C/N1CCN(c2cccc(C(F)(F)F)c2)CC1,-1.3%,3.4%
C=CCNC(=O)NS(=O)(=O)c1ccc(C)cc1,12.0%[1.46 µM],-2.6%
CCc1ccccc1NC(=O)COc1ccc2c(c1)OCO2,-9.0%,-5.9%
Cc1oc(-c2ccc(Cl)cc2)nc1Cn1c(=O)cc(C)c2c(C)nn(-c3cccc(F)c3)c21,-4.2%,-12.2%

# Source: PubChem
